A488 autofl = qHTS Assay for Spectroscopic Profiling in A488 Spectral Region. compound autofluorescence, A488 spectral region, dye equivalency; active compounds read high. max dye equivalency, M. hit rate 0.1% among 59,000; active = above 10 nM dye equivalent; inconclusive = 1 to 10 nM; inactive = 1 nM or less; about half of its hits are not listed in these tables;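 note: highest value over a series up to 38 µM; compound alone in buffer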
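Autofluorescence read at ex 480/em 540 nm after 15 min RT in 100 mM Tris pH 8.0; compound signal normalized to A488 standard series on each plate, reported as dye-equivalent concentration at each test concentration.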
TSHR ag = qHTS Assay for Agonists of the Thyroid Stimulating Hormone Receptor; Thyrotropin receptor (Homo sapiens), P16473; HEK293-CNG-TSHR cells (CNG channel as cAMP sensor), membrane potential dye, cAMP; Potency, µM (series often up to 57.1 µM), inactives show at the top dose activation, hits mostly activators; hit rate 0.48% among 73,000; AID 926, 2007; active = well fitted activation curve of enough size with the parental cells flat; inconclusive = any curve in the parental cells; inactive = parental cells flat and receptor cells flat or falling; note: potency is the fitted concentration of half-maximal effect; % of control where 0% means no effect; weak receptor curves with flat parental cells got no call and are not listed
Target sequence (P16473 whole entry, looked up): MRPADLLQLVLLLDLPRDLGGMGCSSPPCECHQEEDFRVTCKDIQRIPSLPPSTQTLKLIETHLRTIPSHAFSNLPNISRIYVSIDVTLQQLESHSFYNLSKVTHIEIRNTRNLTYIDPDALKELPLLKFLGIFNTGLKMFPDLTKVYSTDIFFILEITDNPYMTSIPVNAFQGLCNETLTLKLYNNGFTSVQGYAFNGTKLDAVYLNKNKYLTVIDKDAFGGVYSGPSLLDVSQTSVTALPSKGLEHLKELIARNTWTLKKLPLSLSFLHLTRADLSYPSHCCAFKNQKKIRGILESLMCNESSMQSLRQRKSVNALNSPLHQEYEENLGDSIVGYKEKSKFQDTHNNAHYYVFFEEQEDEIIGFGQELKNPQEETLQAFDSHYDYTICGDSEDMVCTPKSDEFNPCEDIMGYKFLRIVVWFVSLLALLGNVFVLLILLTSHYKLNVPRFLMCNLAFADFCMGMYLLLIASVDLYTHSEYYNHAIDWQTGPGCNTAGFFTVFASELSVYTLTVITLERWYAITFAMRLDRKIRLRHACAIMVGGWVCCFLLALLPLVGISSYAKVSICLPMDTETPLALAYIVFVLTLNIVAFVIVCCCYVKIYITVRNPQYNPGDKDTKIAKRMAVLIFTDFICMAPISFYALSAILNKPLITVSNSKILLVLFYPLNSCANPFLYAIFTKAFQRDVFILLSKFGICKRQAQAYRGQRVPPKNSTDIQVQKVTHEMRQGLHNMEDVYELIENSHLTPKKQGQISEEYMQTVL
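HEK 293 cells stably expressing TSHR and a cAMP-gated CNG channel; parental CNG-only cells as counterscreen. Cells preloaded 60 min with membrane potential dye plus 100 uM RO 20-1724, then compound 30 min; fluorescence read at 590 nm.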
A647 autofl = qHTS Assay for Spectroscopic Profiling in A647 Spectral Region | Compound fluorescence, A647 channel (570/671 nm), Tris buffer | max dye-equivalent concentration, M | 59,000 tested, under 10 active | AID 592, 2007; active means above 1 µM dye equivalent; inconclusive means 0.1 to 1 µM; inactive means 0.1 µM or less;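 note: values scaled relative to a standard on each plate; highest value over a series up to 38 µM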
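Fluorescence read (570 nm ex, 671 nm em) after 15 min RT incubation of compounds in 100 mM Tris buffer, pH 8.0; values expressed as dye-equivalent concentration against a six-point A647 standard series on each plate.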
AID923 = qHTS Assay for Allosteric/Competitive Inhibitors of Caspase-1: Spectroscopic Profiling in AFC Spectral Region; compound fluorescence, AFC spectral region (405/520 nm); almost no hit is shown here; Potency, µM (series often up to 57.5 µM), for the others: at the highest dose fluorescence increase, actives largely listed as activators; hit rate 1.1% among 75,000; AID 923, 2007; active = well fitted activation curve with a large enough effect; inconclusive = small, poorly fitted or top-dose-only effect;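 note: potency is the fitted concentration of half-maximal effect; 0% is about no effect; scaled to a free AFC standard on each plate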
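Compound autofluorescence profiled at 405 nm ex/520 nm em during kinetic caspase 1 run (50 nM enzyme, 5 uM Ac-WEHD-AFC, HEPES pH 7.5, 10 mM DTT). Titration up to 57 uM; baseline from regression intercept, normalized to AFC standard curve.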
Resorufin autofl = qHTS Assay for Spectroscopic Profiling in Resorufin Spectral Region; hit rate 0.04% among 59,000; max dye-equivalent concentration, M; Compound fluorescence, resorufin region 547/598 nm, buffer; active compounds read high; active = above 10 nM dye equivalent; inconclusive = 1 to 10 nM; inactive = 1 nM or less; a few of its hits are not listed in these tables; note: highest value over a series up to 38 µM
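Intrinsic fluorescence profiled in the resorufin window (ex 547 nm, em 598 nm) after 15 min at room temperature in pH 8.0 Tris buffer (100 mM); responses normalized against a six-point resorufin standard series as dye-equivalent concentration.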
Starred values were filed as active, the others as inactive; i = inactive; u = inconclusive; x = no result given; & = joins results of further samples; [ ] = remark or other dose.

SMILES	A488 autofl	TSHR ag	A647 autofl	AID923	Resorufin autofl
CNC[C@H](O)c1ccc(OC(=O)C(C)(C)C)c(OC(=O)C(C)(C)C)c1	i	-2.4%[25.6 µM]	2.8e-09	3.1%[25.7 µM]	i
COc1ccc(OC)c(NC2c3ccccc3C(=O)N2c2cccnc2)c1 (stereo not drawn)	x	8.6%	x	-2.7%	x
CC(=O)N(Cc1cc(=O)[nH]c2ccccc12)c1cccc(C)c1	i	1.3%	1.84e-08	-0.9%	i
Cc1cc(C(=O)N2CCN(C(c3ccccc3)c3ccccc3)CC2)no1	i	5.2%	4.8e-09	0.3%	i
CCC(C)NC(=O)CS(=O)Cc1nc(-c2cccc(OC)c2)oc1C (stereo not drawn)	x	0.7%	x	2.1%	x
CC(=O)c1c(C)[nH]c(C(=O)NCc2ccccc2Cl)c1C	i	9.0%	5.05e-08	0.2%	i
FC(F)(F)c1cccc(Cl)c1	x	-3.0%	x	1.4%	x
CC(C)Cc1[nH]c(=O)c(C#N)c2c1COC(C)(C)C2	i	x	1e-09	x	i
CN(C(=O)C1CCN(S(=O)(=O)c2cccs2)CC1)C1CCCCC1	i	-5.2%	5.8e-09	8.0%	i
CN1CCN(C(=O)c2cc3sccc3n2CC(=O)c2ccccc2)CC1	i	13.7%	1e-09	-1.7%	i
Cc1cccc(CNc2ncnc3ccc(-c4c(C)noc4C)cc23)c1	i	u	1e-09	-0.9%	i
CC(C(=O)O)n1nc2ccccc2n1 (stereo not drawn)	i	0.4%	1e-09	0.7%	i
Fc1ccc(C(c2nnnn2Cc2cccs2)N2CCN(C3CCCC3)CC2)cc1 (stereo not drawn)	i	u	2.95e-08	0.2%	i
O=C(O)c1cc(-c2ccccc2)nc2ccccc12	i	3.4%	1.2e-09&1e-09	-2.2%	i
CCN(C(C)=O)c1nnc(CSc2nc3ccccc3s2)s1	i	u	4.94e-08	-0.5%	i
COc1ccc(Oc2ncc3nc(-c4ccc(Cl)cc4)c(=O)n(C)c3n2)cc1	i	-0.3%	1e-09	1.8%	i
Cc1cccc(-c2nnc(NC(=O)c3ccc(Cl)cc3)o2)c1	i	10.6%[11.4 µM]	1e-09	-0.7%	i
COc1cccc(C2=NOC(C(=O)NCCN3CCOCC3)C2)c1 (stereo not drawn)	i	-1.2%	1e-09	0.8%	i
O=C(OCC(=O)c1ccco1)c1ccc2ncsc2c1	i	-1.6%	4.9e-09	-0.5%	i
CN1CCN(CCCN)CC1	i	4.5%[11.4 µM]	1e-09	-0.4%[11.5 µM]	i
Cc1c(NC(=O)Cn2nc(C(F)(F)F)c3c2CCCC3)c(=O)n(-c2ccccc2)n1C	i	-9.8%	8.8e-09	-1.2%	i
O=C(Nc1nccs1)C1C2CC3OC(=O)C1C3C2 (stereo not drawn)	i	u	3.3e-09	1.1%	i
COc1cc(CNC2CCC(C)C2)cc(OC)c1 (stereo not drawn)	i	u	1e-09	-1.8%	i
CCCCC(=O)N(C)C	x	7.7%	x	-1.0%	x
O=C(O)C1C2CCC(C2)C1C(=O)Nc1nc2ccccc2s1 (stereo not drawn)	i	-3.9%	1e-09	0.1%	i
O=C(Cc1cccs1)Nc1ccccn1	i	2.2%	2.8e-09	3.3%	i
CC1(C)Cc2c(c(N3CCOCC3)nc3snc(Br)c23)CO1	i	x	3.2e-09	x	i
CC(C)c1c(O)nc(SCCC(=O)O)[nH]c1=O	i	25.0%	5.61e-08	-1.7%	i
COc1cc(CN(C(=O)c2ccco2)c2ccc(C)cc2)ccc1O	i	19.7%	2.12e-08	-1.4%	i
CCCCCn1c(SCC#N)nc2cc(C(=O)NCC3CCCO3)ccc2c1=O (stereo not drawn)	i	x	5.2e-09	-1.2%	i
CC1(C)Cc2c(sc3c2c(=N)n(Cc2ccco2)c(=O)n3Cc2ccc(Cl)cc2)CO1	i	x	1.22e-08	1.0%	i
O=C(Nc1ccc(O)cc1)c1ccc(C(=O)c2ccccc2)o1	i	-10.6%	1.24e-08	-1.6%	i
CCN(CC)S(=O)(=O)c1cccc(-c2nnc(SCC(N)=O)n2CCc2ccccc2)c1	i	22.6%	5.4e-09	-0.7%	i
Cc1ccc(S(=O)(=O)CC(=O)N2CCCC2)cc1	i	1.0%	4e-09	-2.8%	i
COC(=O)Cn1c(C(=O)N(C)C)cc2c1C[C@H]1CN(C(=O)c3ccccc3)[C@@](Cc3ccc(F)cc3)(C(=O)OC)[C@@H]21	x	u	x	-0.2%	x
Cc1cc(NC(=O)CCC(=O)N(CCC(C)C)C(C(=O)NC2CCCC2)c2cccnc2)no1 (stereo not drawn)	i	6.1%	1e-09	0.5%	i
Cc1ccc(-c2nnn(CC(=O)N3CCN(c4ccccc4)CC3)n2)o1	i	0.1%[11.4 µM]	1e-09	0.5%	i
O=C(CSc1nnnn1-c1ccccc1)NC(=O)Nc1ccc2c(c1)OCCO2	i	x	1.17e-08	-2.6%	i
CCOC(=O)/C(C#N)=C1/SC(CCO)C(=O)N1c1ccccc1 (stereo not drawn)	i	x	1e-09	x	i
COc1cc(NC(=O)C2CCCCN2)ccc1OCC(C)C (stereo not drawn)	i	1.8%	2.8e-08	-2.4%	i

Some of these compounds in order of heavy-atom count, lowest first:
SMILES	A488 autofl	TSHR ag	A647 autofl	AID923	Resorufin autofl
CCCCC(=O)N(C)C	x	7.7%	x	-1.0%	x
O=C(Cc1cccs1)Nc1ccccn1	i	2.2%	2.8e-09	3.3%	i
COc1cc(NC(=O)C2CCCCN2)ccc1OCC(C)C (stereo not drawn)	i	1.8%	2.8e-08	-2.4%	i
CCOC(=O)/C(C#N)=C1/SC(CCO)C(=O)N1c1ccccc1 (stereo not drawn)	i	x	1e-09	x	i
CCCCCn1c(SCC#N)nc2cc(C(=O)NCC3CCCO3)ccc2c1=O (stereo not drawn)	i	x	5.2e-09	-1.2%	i

Further records
SMILES	A488 autofl	TSHR ag	A647 autofl	AID923	Resorufin autofl
CCOC(=O)N1CCN(C(=O)Cn2c(=O)sc3ccccc32)CC1	i	-2.2%	2.02e-08	1.1%	i
COCCOC(=O)c1c(C)oc2ccc(NS(=O)(=O)c3ccc(C(=O)O)cc3)cc12	i	2.7%	1e-09	2.1%	i
CCC1(CC)C(=O)NC(=O)NC1=NCCc1ccc(O)cc1	i	-1.1%	2.96e-08	0.2%	i
COc1ccc2[nH]c(O)c(NC(C)=O)c2c1	i	19.6%	5.9e-09	2.3%	i
CCn1cc(Br)c(C(=O)Nc2cccc(Cl)c2)n1	i	2.6%	1e-09	-1.8%	i
O=C(Nc1ccc(CN2CCOCC2)cc1)c1cccc(F)c1	i	5.5%	4.6e-09	-1.2%	i
CC(=O)Nc1c(C(=O)N2CCN(c3ncccn3)CC2)cnn1-c1ccccc1Cl	i	-3.1%	6.2e-09	0.6%	i
CC1CN(C(=O)CSc2nnc(-c3ccncc3)n2-c2ccccc2)CC(C)O1 (stereo not drawn)	i	1.0%	8e-09	-1.5%	i
CC(=O)N1CCc2cc(S(=O)(=O)NC3CCCc4ccccc43)ccc21 (stereo not drawn)	i	26.7%	1.43e-08	-1.5%	i
COc1cc2c(cc1OC)C(C(=O)NCCN1CCOCC1)C1c3ccccc3CCN1C2=O (stereo not drawn)	i	3.8%	5.4e-09	-0.3%	i
O=C(c1ccccc1)N1CCN(C(=O)c2ccccc2Br)CC1	i	11.6%	7.8e-09	-0.9%	i
CCCc1cc(NCCN2CCOCC2)n2c(nc3ccccc32)c1C#N	i	x	1.5e-09	x	i
O=C(NCc1ccc(N2CCCC2=O)cc1)c1cn(Cc2ccccc2)nn1	i	15.3%	5.75e-08	1.0%	i
COc1c(-c2ccccc2)oc2c(ccc3occc32)c1=O	i	u	1e-09	-2.1%	i
Clc1ccc(CSC2=NCCN2)cc1Cl	i	-3.9%[11.4 µM]	2.04e-08	-0.4%[11.5 µM]	i
O=S(=O)(NCc1ccccn1)c1ccc(Br)s1	i	x	1e-09	3.9%	i
CC(=O)N(c1ccc(Br)cc1)C1C=CS(=O)(=O)C1 (stereo not drawn)	x	-1.6%	x	-0.9%	x
O=c1cc(O)n(-c2ccccc2F)c(=S)[nH]1	i	4.9%	1e-09	-0.6%	i
COC(=O)c1ccccc1NC(=O)CSc1ccccc1	x	22.8%[11.4 µM]	x	0.3%	x
CC12CN3CC(C)(CN(C1)C3c1ccc(Cl)cc1Cl)C2O (stereo not drawn)	i	x	2.85e-08	x	i
CCOc1ccc(NC(=O)CN(c2cc(C)cc(C)c2)S(=O)(=O)c2c(C)noc2C)cc1	x	6.5%	x	-2.4%	x
COc1ccc(C(CC(=O)O)NC(=O)COc2ccccc2)cc1 (stereo not drawn)	i	8.4%	1.76e-08	1.1%	i
Nn1c(SCC(=O)Nc2cccc(F)c2)nnc1C1CCCCC1	i	1.1%	2.1e-09	1.0%	i
COc1cccc(CN2C(=O)CCC2(C)C(=O)NC2CCCCCC2)c1 (stereo not drawn)	i	7.9%	1.64e-08	1.9%	i
N[C@@H](C(=O)O)[C@H](O)C(=O)O	i	10.3%	3.7e-09	x	i
CC(C)(C)NS(=O)(=O)c1ccc(NS(=O)(=O)c2ccc(F)cc2)cc1	x	-10.4%[11.4 µM]	x	0.2%	x
COc1nnc(-c2ccc(C)c(S(=O)(=O)NCCO)c2)c2ccccc12	x	26.8%	x	0.0%	x
O=C(Nc1ccccc1N1CCOCC1)c1ccc(Br)o1	i	u	5.7e-09	-0.5%	i
O=C(CSc1nnc(CNc2ccc(Cl)cc2)o1)Nc1nc2ccccc2s1	i	-1.0%	1e-09	2.1%	i
CCCCC(C(=O)O)C(C)CC(=O)Nc1cccc(C(=O)O)c1 (stereo not drawn)	i	x	2.2e-09	x	i
COc1ccc(CCNC(=O)C2CCN(S(=O)(=O)N3CCOCC3)CC2)cc1OC	i	1.0%	4.4e-09	-1.1%	i
CCOC(=O)N1CCN(c2ccc(Cl)c(Cl)c2)CC1	i	7.5%	2.4e-09	-0.7%	i
C=CCSC1=N/C(=C\C=C\c2ccco2)C(=O)S1	x	3.2%	x	1.3%	x
Nc1ccc(C(=O)OCCCc2nc3ccccc3[nH]2)cc1	i	-2.0%	2.1e-08	-2.0%	i
COc1ccc(C2CC(=O)NC3=C2C(=O)CCC3)cc1Cl (stereo not drawn)	i	13.7%	4.56e-08	0.2%	i
COCCCNC(=O)c1cc2c(=O)n(C)c3ccccc3c2n1C	x	3.7%	x	0.7%	x
CCCC(=O)Nc1ccc(NC(=O)CCc2ccccc2)cn1	i	-5.6%	1e-09	0.5%	i
Cc1ccc(-n2nc3c(c2NC(=O)c2c(-c4ccccc4Cl)noc2C)CS(=O)(=O)C3)c(C)c1	i	u	3.3e-09	2.2%	i
O=C(NCCc1ccccc1)c1cnc2sccn2c1=O	x	0.1%	x	3.5%	x
CCOCCn1c(SC)nc2c1c(=O)[nH]c(=O)n2C	i	x	8.95e-08	x	i
Cc1cc(Cl)c(S(=O)(=O)N2CCSCC2)cc1OCC(N)=O	i	2.1%	1.59e-08	1.6%	i
CC1(C)NC(=O)N(CC(O)COc2ccc(-c3ccc(C#N)cc3)cc2)C1=O (stereo not drawn)	i	-5.1%	9.5e-09	-1.8%	i
Cc1ccc(C2N(c3ccc(Cl)c(Cl)c3)C(=O)C3CCCN32)o1 (stereo not drawn)	i	6.1%	2e-09	0.2%	i
CCCCCCn1c(NCC)nc2c1c(=O)[nH]c(=O)n2C	i	u	1.86e-08	1.2%	i
C=CCn1c(SCC(=O)Nc2sccc2C(N)=O)nc2sc(C)c(C)c2c1=O	i	21.3%	1e-09	1.5%	i
Cn1nc(-c2ccc(N3CCOCC3)c(NC(=O)COc3ccccc3)c2)c2ccccc2c1=O	i	10µM*	8.4e-09	-1.7%	i

Source: PubChem

A portion of the library; rates above refer to the full screens.
